From PubChem BioAssay
RN4220 kill – growth inhibition of S. aureus RN4220, primary screen, OD600. 16 h. inhibition, % (no concentration beside the values). hit rate 0.33% among 330,000. AID 1259311, 2017;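 active means z-score of -3 or lower and OD600 up to 0.18 on both plates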;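 further: plate controls were untreated cells for no effect and reference antibiotic for full effect; stock transfer was 100 nL into about 80 µL; one replicate is shown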
BJeLR viability – MLPCN primary cell-based screen for lethality selective to Ras in HRASV12 cells; AID 1554, 2009; hit rate 0.17% among 300,000; inhibition, % (concentration not given with the values); BJeLR (HRASV12) viability, CellTiter-Glo ATP luminescence, 48 h; reference of the scale not given here;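 active means replicate mean above 50%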;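 further: 50 nL library stock added to about 25 µL; numbers are from one replicate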
ugtP null kill – growth inhibition of ugtP-null S. aureus, primary screen, RN4220 ugtP deletion, OD600; growth inhibition, % (concentration not given with the values); hit rate 0.54% among 330,000; 16 h; some inactives read as strong as hits;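 active means z-score under -3 and OD600 up to 0.15 on both plates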;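 further: plate controls were untreated wells for no effect and antibiotic for full effect; wells of about 80 µL received 100 nL stock; the first replicate is given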
PrP 5UTR inh – inhibition of PrP 5' UTR reporter expression | cell-based PrP 5' UTR mRNA reporter, plate reader | inhibition, % (test concentration not listed) | hit rate 0.35% among 340,000;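 active means every replicate at 50% or more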;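 further: 0 = median of the neutral control wells; tested in H4 reporter cells; numbers are from one replicate; inactives centre near -14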
Bead autofluor – counter-screen for toxin protease inhibitors: compound fluorescence; compound autofluorescence counterscreen, microsphere flow cytometry; hits give high values; fluorescence intensity (test concentration not listed); hit rate 3.1% among 360,000;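 active means at least 3 SD above the mean of all compounds, about 16000 in these data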;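 further: 100 nL of 1 mM stock went into each well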
Mtb hypoxia inh – PubChem AID 1159583. fluorescence inhibition, % (concentration not given with the values). M. tuberculosis hypoxia-regulated fluorescent reporter, fluorescence. hit rate 0.1% among 300,000;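 active means 35 to 45% if threefold the growth effect, above 45% if 1.5-fold the growth effect; inactive means the rest, general growth blockers included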;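 further: wells of about 50 µL received 100 nL stock; 0% = vehicle wells and 100% = reference inhibitor wells; whole bacteria with a GFP reporter of the hypoxia response; strong numbers were not always called active; many hits fall short of the cut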
Mtb hypoxia inh growth – also measured in Mtb hypoxia inh; calls as there; growth inhibition, %; measured here: M. tuberculosis growth (absorbance);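 0% = vehicle and 100% = reference antibiotic; read after six days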
The depositor's hits bear a star; · = no result given. This is a random part of the collection; overall some 4% were active at least once.

SMILES	RN4220 kill	BJeLR viability	ugtP null kill	PrP 5UTR inh	Bead autofluor	Mtb hypoxia inh	Mtb hypoxia inh growth
COC(=O)C(NC(=O)CNS(=O)(=O)c1ccc(Br)cc1)c1ccccc1 (stereo unspecified)	7.2	2.4	4.6	-21.9	4286	-0.6	-6.7
CN(Cc1ccccc1)C(=O)CC(c1ccccc1)c1cc(Cl)ccc1O (stereo unspecified)	4.5	-1.5	-4.1	-9.0	7777	9.2	5.8
O=C(Oc1ccc(O)cc1)C12CC3CC(CC(C3)C1)C2	9.8	3.6	-10.0	-6.4	3334	-8.2	-8.1
O=C(c1cccs1)N1CCN(c2ccc(Cl)cc2)CC1	2.1	13.5	4.7	-24.9	4246	7.6	16.9
COc1ccc2c(c1)c(CC(=O)NCc1cc([N+](=O)[O-])ccc1O)c(C)n2C(=O)c1ccc(Cl)cc1	3.8	5.9	52.2	-17.3	5832	-6.4	7.4
O=C(CCS(=O)(=O)c1ccccc1)Nc1nnc(C(F)(F)F)s1	3.2	0.8	14.9	-10.4	3934	1.9	4.1
COC(=O)C1=C(C)NC(=O)NC1c1ccco1 (stereo unspecified)	0.1	-0.9	-1.1	-11.3	2228	3.0	-1.0
CC(C)c1ccc(C(=O)NN2CCOCC2)cc1	3.3	-2.4	5.1	-18.1	5552	7.9	-3.0
O=S(=O)(NC1CCCCC1)c1ccc(Cl)s1	2.2	-8.8	-4.8	-13.3	5277	10.3	4.1
Cc1cc(C(=O)COc2ccc(C#N)cc2)c(C)n1C1CC1	4.4	-15.6	8.1	-17.3	5642	9.2	7.9
CCCC(=O)Nc1nc2nc(-c3ccccc3)cc(=O)n2[nH]1	7.3	-1.3	7.9	-16.1	2384	-1.6	9.7
Cc1cccc(OCCCC(=O)O)c1C	1.1	3.0	10.3	-9.1	3192	3.7	2.6
COc1ccc(-c2cc(C(=O)N(C)CC(=O)Nc3ccccc3Cl)c3ccccc3n2)cc1OC	4.0	1.6	0.5	0.5	5012	7.3	4.4
CCC(C)c1ccc(NC(=S)Nc2ccc(OC)cc2C)cc1 (stereo unspecified)	4.4	10.1	5.5	-3.9	2420	0.5	-1.3
CC(C)C(=O)N1CCN(c2ccccc2NC(=O)Cc2ccc(Cl)cc2)CC1	1.1	3.6	-5.8	-16.4	9452	1.4	7.8
CCOC(=O)c1sc(-c2ccc(F)cc2)cc1N	4.5	-9.8	-2.0	-89.2	25606*	6.7	4.6
CC(=O)c1cccc(NC(=O)CNC(=O)c2cc3ccccc3o2)c1	6.8	-21.7	7.8	-9.8	4281	0.6	-5.0
COc1ccc(OCC(=O)Nc2ccc3c(c2)nc(CCN2CCOCC2)n3C)cc1	4.2	-15.7	3.5	-28.9	9889	10.1	6.2
Cc1csc(OCc2ccc(C#N)cc2)n1	1.3	-2.5	-2.4	-18.4	10450	1.5	-2.0
O=C(c1nc2ccc(Cl)cn2c1CN1CCC[C@H]1CO)N1CCCCCCC1	4.5	-6.8	6.4	-15.4	5178	2.6	8.8
O=C1N/C(=C/c2ccc(N3CCCC3)cc2)C(=O)N1c1ccccc1	-0.6	9.4	1.3	-52.7	2772	12.7	4.7
COC(=O)c1sc2nc(CN3CCN(c4cccc(C(F)(F)F)c4)CC3)[nH]c(=O)c2c1C	5.2	-1.0	-7.0	1.9	2744	-1.2	-0.8
COCCN(CC(=O)Nc1cccc(C)c1C)C(=O)c1cc(-c2ccncc2)nc2ccccc12	4.2	·	-2.0	-0.2	3696	-3.2	3.9
CC(C)(C)C(=O)Nc1ccc(C(=O)NNC(=O)c2ccccc2)cc1	-1.2	10.4	-0.7	-5.2	3427	-7.6	5.4
O=C(NCCCN1CCOCC1)c1cc(-c2ccc(O)cc2)on1	3.3	5.5	1.5	-1.8	6362	0.5	-3.9
COc1ccc(-c2ncncc2-c2ccc(OC)c(OC)c2)c(O)c1	-6.7	-4.9	-4.5	-10.8	4372	0.8	1.6
O=S(=O)(Cc1ccccc1)N1CCC(N2CCN(c3ccccc3)CC2)CC1	6.0	-1.2	4.2	-15.0	8244	15.0	4.1
CCOC(=O)CN1N=C(c2ccc(Cl)s2)CSC1=O	5.7	3.9	7.4	-3.8	2753	5.2	8.7
CCCn1c(SCC(=O)Nc2ccc(Cl)cc2)n[nH]c1=O	4.0	8.4	2.4	-26.4	4396	4.5	5.0
COC(=O)c1ccccc1SC1CC(=O)N(c2ccccc2)C1=O (stereo unspecified)	1.0	0.0	-6.2	-3.9	2573	7.1	-3.2
CCOc1ccc(C(=O)NC(C(=O)NCCc2ccc(OC(F)F)cc2)C(C)C)cc1 (stereo unspecified)	-1.0	-3.6	13.6	5.9	6232	-1.6	5.6
O=C1NC2=C(C(=O)CCC2)C(c2ccccc2[N+](=O)[O-])N1 (stereo unspecified)	0.9	-3.6	3.0	-16.8	3600	5.1	-1.3
Cc1c([N+](=O)[O-])cc(C(=O)Oc2cccc(C(=S)N3CCOCC3)c2)cc1[N+](=O)[O-]	2.0	-1.8	14.1	0.9	1938	19.2	12.9
O=[N+]([O-])c1ccc2c(c1)CCN2	1.1	·	0.0	-16.5	2992	7.8	-0.8
Cc1nnc(Sc2c(-c3ccccc3)c3ccc(Cl)cc3[nH]c2=O)s1	4.2	-2.2	-0.3	0.2	9107	-4.0	-5.8
Oc1ccc(C=NNc2ccc(C(F)(F)F)cn2)cc1	6.7	·	6.2	·	·	1.1	2.0
COc1ccc(C(=O)Nc2ccc3[nH]ccc3c2)cc1	0.3	7.8	3.5	33.6	4754	-5.4	-1.7
Cn1c(=O)oc2cc(S(=O)(=O)N3CCC(C(=O)N4CCc5ccccc5C4)CC3)ccc21	6.3	-9.6	-5.5	-7.8	5976	-4.8	0.5
CCOC(=O)c1c(C)c(C#N)c2c3ccccc3ccn12	3.8	16.8	0.9	-31.5	3294	3.5	5.4
CC(C)(NO)C(=NO)c1ccc(Cl)cc1	3.0	·	7.1	·	·	12.3	0.7
COCCN(C(=O)CC1OC(=O)c2ccccc21)c1c(N)n(Cc2ccccc2)c(=O)[nH]c1=O (stereo unspecified)	3.3	·	1.7	-15.6	7014	6.8	4.2
CCCNC(=O)CSc1ccc(S(=O)(=O)N2CCCCC2)cn1	1.5	·	1.1	-30.9	5601	-4.6	2.0
Cc1ccc2ccc(S(=O)(=O)n3nc(C)cc3C)cc2c1	5.7	-0.8	-12.2	-27.5	7758	15.6	2.9
CCCC(=O)N1CCN(c2ccc(NC(=O)c3ccccc3)cc2)CC1	3.5	4.7	0.7	-10.2	8551	-4.3	10.6
COc1ccc(NC(=O)CSCC(=O)N2CCCc3ccccc32)cc1	-3.6	1.9	-2.0	-14.6	5611	1.9	0.0
COc1ccc(C(CC(=O)Nc2ccc(C)cc2)NC(=O)C(F)(F)F)cc1 (stereo unspecified)	·	5.1	·	1.3	10002	·	·
COc1ccccc1C1CC(c2ccc(NS(C)(=O)=O)cc2)=NN1S(=O)(=O)c1ccccc1 (stereo unspecified)	7.7	-8.9	-4.5	-2.4	5606	10.0	11.3
COc1ccc(C(=O)N2CCCC(c3nc(-c4ccc(OC)c(OC)c4)no3)C2)c(OC)c1 (stereo unspecified)	1.1	11.5	-1.9	-12.0	20939*	-0.3	3.4
Cc1ccc(S(=O)(=O)c2ncccc2N)cc1	2.4	-2.0	0.7	-11.8	3415	8.5	3.6
CCN(CC)CCCN(Cc1cc2cc3c(cc2[nH]c1=O)OCO3)C(=S)Nc1ccccc1	3.1	0.9	7.6	-7.5	4179	8.2	4.9
COc1ccc(-c2nnc3ccc(SCC(=O)Nc4nccs4)nn23)cc1OC	4.4	-15.7	9.0	-5.1	2147	-2.1	2.2
COc1cc2c(cc1OC)C(c1ccc(SC)cc1)CC(=O)N2 (stereo unspecified)	3.7	-0.9	9.9	-10.0	3479	22.7	11.8
Cc1ccc(S(=O)(=O)N2CCCCC2)cc1C(=O)NCCc1ccccc1	1.6	-4.4	2.7	10.5	3962	-0.6	-0.6
O=C(NCc1cccs1)c1cc(-c2ccccc2)nc2ccccc12	3.2	5.9	5.7	-8.1	2190	-1.7	-5.7
O=C(NCc1ccccc1Cl)c1ccc2c(=O)n(CC3CCCO3)c(=S)[nH]c2c1 (stereo unspecified)	-11.1	9.1	-1.5	-4.8	5811	-6.6	-0.8
O=S(=O)(Nc1ccc(C(F)(F)F)cc1)c1cnc[nH]1	-4.2	1.3	-5.6	-8.6	4808	·	·
CCOc1ccc(S(=O)(=O)N(C)c2ccc(OCC(=O)NCC3CCCO3)cc2)cc1 (stereo unspecified)	2.1	4.1	4.0	-6.8	3751	6.4	10.8
COc1ccc(CCNC(=O)C2CCCN(S(C)(=O)=O)C2)cc1 (stereo unspecified)	·	-1.3	·	-12.7	3621	·	·
O=C1C(Oc2ccccc2)C(c2cccs2)N1Cc1ccc2c(c1)OCO2 (stereo unspecified)	-1.5	-8.9	2.5	-7.3	9394	3.6	3.8
CC(Cl)(Cl)/C(=N/P(=S)(N1CCOCC1)N1CCOCC1)N1CCOCC1	·	5.9	·	-23.5	5854	·	·
(more compounds)
SMILES	RN4220 kill	BJeLR viability	ugtP null kill	PrP 5UTR inh	Bead autofluor	Mtb hypoxia inh	Mtb hypoxia inh growth
O=c1[nH]c(SCc2nc3ccccc3c(=O)n2-c2ccccc2C(F)(F)F)nc2ccccc12	11.0	-3.1	-4.0	-31.8	10276	-8.0	2.9
COc1ccc(-c2noc(CSc3nnc(CCc4ccccc4)n3-c3ccccc3)n2)cc1OC	14.0	-5.4	-7.3	-8.5	12680	5.3	3.2
COC(=O)[C@@]1(Cc2ccc(OC)cc2)C2c3cc(C(=O)N4CCCC4)n(CC(O)CO)c3CC2CN1C(=O)c1ccccc1 (stereo partly specified)	4.2	·	1.8	·	·	2.9	-1.5
O=C(CN1CCN(S(=O)(=O)c2ccc(Cl)cc2)CC1)Nc1ccc2c(c1)OCO2	-4.2	1.2	7.2	-1.2	2108	·	·
Cc1ccn2c(C(=O)NN=Cc3ccc(Cl)cc3)c(C)nc2c1	-0.9	·	6.7	·	·	5.8	10.4
N#C/C(=C(/O)CO/N=C/c1ccccc1Cl)c1nc2ccccc2[nH]1	·	-3.3	·	-25.8	4478	·	·
O=C(Cc1ccc(Cl)cc1Cl)NC1CCCCCC1	-6.1	0.4	-2.4	-2.1	3158	0.0	4.1
COC(=O)CN(c1ccc(C)cc1)S(=O)(=O)c1ccc2c(c1)n(C)c(=O)c(=O)n2C	0.9	-3.0	-3.0	-4.0	2574	·	·

Filtered by structure: those above with an aryl thioether with sulfur outside any ring
SMILES	RN4220 kill	BJeLR viability	ugtP null kill	PrP 5UTR inh	Bead autofluor	Mtb hypoxia inh	Mtb hypoxia inh growth
CCCn1c(SCC(=O)Nc2ccc(Cl)cc2)n[nH]c1=O	4.0	8.4	2.4	-26.4	4396	4.5	5.0
COC(=O)c1ccccc1SC1CC(=O)N(c2ccccc2)C1=O (stereo unspecified)	1.0	0.0	-6.2	-3.9	2573	7.1	-3.2
Cc1nnc(Sc2c(-c3ccccc3)c3ccc(Cl)cc3[nH]c2=O)s1	4.2	-2.2	-0.3	0.2	9107	-4.0	-5.8
CCCNC(=O)CSc1ccc(S(=O)(=O)N2CCCCC2)cn1	1.5	·	1.1	-30.9	5601	-4.6	2.0
COc1ccc(-c2nnc3ccc(SCC(=O)Nc4nccs4)nn23)cc1OC	4.4	-15.7	9.0	-5.1	2147	-2.1	2.2
COc1cc2c(cc1OC)C(c1ccc(SC)cc1)CC(=O)N2 (stereo unspecified)	3.7	-0.9	9.9	-10.0	3479	22.7	11.8
O=c1[nH]c(SCc2nc3ccccc3c(=O)n2-c2ccccc2C(F)(F)F)nc2ccccc12	11.0	-3.1	-4.0	-31.8	10276	-8.0	2.9
COc1ccc(-c2noc(CSc3nnc(CCc4ccccc4)n3-c3ccccc3)n2)cc1OC	14.0	-5.4	-7.3	-8.5	12680	5.3	3.2
